Vif TR-FRET: inhibitors of Vif binding to APOBEC3G peptide, primary screen, biochemical, TR-FRET, GST-Vif 1-94, biotin-A3G peptide, dose response retest (AID 1117319); TR-FRET GST-Vif / biotin-A3G peptide binding; higher % means a stronger effect; test concentration not given here; strong numbers were not always called active; inhibition, %, or IC50 in µM where a hit was titrated; 0.57% of 260,000 active;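 active = above the screen mean plus three standard deviations and confirmed in dose response; inconclusive = results disagree or hit not tested in dose response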;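 also: Vif residues 1-94 fused to GST binding biotinylated APOBEC3G peptide 110-148; 0% = full assay without inhibitor and 100% = GST in place of GST-Vif; retest series ran down from 100 µM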
HNF4A DNA FP: change in binding of human HNF4 alpha to DNA. activity change, % at 10 µM. HNF4a-FITC DNA binding, fluorescence polarization, 1 h. P41235. 0.3% of 360,000 active; in the data active = activity change above about 30%, passing the limit was not always enough;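 also: controls were the assay level and a saturating level of protein; the project sought stronger binding though the title names inhibitors; some compounds called inactive have numbers as strong as hits; positive values seem to mean higher polarization but the record does not say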
Target sequence (P41235 whole entry, looked up): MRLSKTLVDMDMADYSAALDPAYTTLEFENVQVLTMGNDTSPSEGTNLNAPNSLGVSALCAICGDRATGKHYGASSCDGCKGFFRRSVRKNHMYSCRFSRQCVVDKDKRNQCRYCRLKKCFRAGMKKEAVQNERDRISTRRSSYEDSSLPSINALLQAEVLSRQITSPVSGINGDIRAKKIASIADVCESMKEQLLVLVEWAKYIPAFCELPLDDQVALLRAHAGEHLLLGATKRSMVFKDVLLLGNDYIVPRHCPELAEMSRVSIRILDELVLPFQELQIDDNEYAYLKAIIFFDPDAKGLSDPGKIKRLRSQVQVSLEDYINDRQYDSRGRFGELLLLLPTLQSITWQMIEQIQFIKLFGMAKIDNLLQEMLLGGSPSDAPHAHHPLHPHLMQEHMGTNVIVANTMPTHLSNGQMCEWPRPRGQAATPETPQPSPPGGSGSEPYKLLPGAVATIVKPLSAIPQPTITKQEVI
ALR H2O2 inh: inhibitors of human sulfhydryl oxidase ALR. P55789. purified ALR, DTT oxidation, H2O2 HRP-luminol luminescence. inhibition, % (no concentration beside the values). 3.8% of 290,000 active. AID 485317;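 active = mean and each replicate at 75% or more; inconclusive = only one of the two met; inactive = neither met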;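 also: stock transfer was 7.5 nL into about 7.5 µL; 0% = neutral wells and 100% = wells with inactivated enzyme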
Target sequence (P55789 whole entry, looked up): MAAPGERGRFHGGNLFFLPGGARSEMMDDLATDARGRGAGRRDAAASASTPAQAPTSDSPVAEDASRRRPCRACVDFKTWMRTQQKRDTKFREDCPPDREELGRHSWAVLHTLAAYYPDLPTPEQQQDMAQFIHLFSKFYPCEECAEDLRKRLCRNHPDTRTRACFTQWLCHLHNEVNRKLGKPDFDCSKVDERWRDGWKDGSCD
RanGTP-Imp inh: inhibitors of RanGTP-importin-beta interaction, primary screen, biochemical, FRET, CFP-Ran, YFP-importin-beta, homogeneous; cell-free CFP-Ran/YFP-importin-beta FRET ratio; inhibition, % (no concentration beside the values); 1.1% of 300,000 active; AID 2216;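 active = most replicates above 15%; inconclusive = exactly half above 15%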;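 also: 0% = DMSO wells and 100% = Ran loaded with GDP instead of GTP; wells of about 40 µL received 100 nL stock; the first replicate is given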
Beta2AR agonist: activates human beta-2 adrenergic receptor causing internalization. Am2.2-beta2AR cells, FAP receptor internalization, flow cytometry; reference of the scale not given here. 0.43% of 340,000 active. AID 504454. response, % (no concentration beside the values);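 active = response above a set limit, near 3 SD of response in nonfluorescent compounds, cut at about 42% in these data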;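 also: stock transfer was 100 nL into about 11 µL; a reference agonist was the positive control; negative values mostly stem from fluorescent compounds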
Target sequence (P07550 whole entry, looked up): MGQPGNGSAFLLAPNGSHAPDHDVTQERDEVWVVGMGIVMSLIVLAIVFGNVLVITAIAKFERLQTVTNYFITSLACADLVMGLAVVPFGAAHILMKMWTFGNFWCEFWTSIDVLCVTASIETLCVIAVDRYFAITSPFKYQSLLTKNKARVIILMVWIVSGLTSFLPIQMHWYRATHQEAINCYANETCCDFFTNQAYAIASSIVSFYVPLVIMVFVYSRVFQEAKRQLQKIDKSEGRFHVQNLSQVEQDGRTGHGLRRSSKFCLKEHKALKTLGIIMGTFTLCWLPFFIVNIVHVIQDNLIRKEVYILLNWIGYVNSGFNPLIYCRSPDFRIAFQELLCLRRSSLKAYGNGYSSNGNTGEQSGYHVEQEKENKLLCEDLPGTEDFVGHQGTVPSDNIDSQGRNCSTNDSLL
Calb FLC: affects C. albicans growth with fluconazole. C. albicans CaCi-2 (fluconazole-resistant clinical isolate) + fluconazole, Alamar Blue growth, 48 h. growth inhibition, % (test concentration not listed). 0.57% of 300,000 active. AID 1979;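 active = most replicates above 75%; inconclusive = exactly half above 75%; inactive = most below 75%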;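 also: all wells also contain fluconazole at 8 µg/ml as a sub-toxic cotreatment; 0% = median of DMSO wells and 100% = median of geldanamycin control wells; wells of about 8 µL received 7.5 nL stock; the first replicate is given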
LANA-H2B inh: blocks KSHV LANA binding to histone H2A/H2B. AID 2629. inhibition, % (concentration not given with the values). cell-free LANA-H2A/H2B peptide, fluorescence polarization. Q9QR71. 0.6% of 320,000 active; in the data active = inhibition mostly above about 10%, no sharp cut-off; inactive = mostly below about 6.7%;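 also: stock transfer was 7.5 nL into about 10 µL; 0% = median of vehicle wells and 100% = median of positive control wells; one replicate is shown; the record names a cut of 25% in any replicate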
* marks the source's active call; other numbers are inactive results; i = inactive; ? = inconclusive; / = not tested or not shown. Compounds as they come; any-hit rate near 6.3%.

SMILES	Vif TR-FRET	HNF4A DNA FP	ALR H2O2 inh	RanGTP-Imp inh	Beta2AR agonist	Calb FLC	LANA-H2B inh
Cc1ccc(O)c(NC(=O)C2CC(c3cccc(Br)c3)=NO2)c1 (centres undefined)	1%	-2.1	-4	4.0	12	8	-3.1
CNc1nc(C)cc(C)c1S(=O)(=O)c1ccc(Cl)cc1	0%	-2.1	-6	2.0	-1	-15	6.9
COc1ccc(-c2cc(-c3n[nH]c(=S)n3-c3cc(OC)ccc3OC)[nH]n2)cc1	/	4.8	83*	-0.1	-4	-12	-1.0
COc1ccc(Cl)cc1S(=O)(=O)Nc1ncn[nH]1	/	3.0	-9	5.9	1	-8	1.4
COc1cc(C(=O)NCc2cccc3ccccc23)cc(Cl)c1OC	9%	-4.2	-5	3.0	4	30	-2.8
NC(=O)CSc1nc2c(sc3ccccc32)c(=O)n1CCCN1CCOCC1	32%	0.6	/	-0.5	0	-8	2.7
CCOC(=O)c1c(NC(=O)COC(=O)c2ncc(Cl)c(Cl)c2Cl)sc(C(=O)N(C)C)c1C	/	2.1	-4	2.8	-3	21	1.0
O=C(NCC1CCCO1)c1cc2c(s1)CS(=O)(=O)C2 (centres undefined)	-1%	-1.7	-17	3.8	5	-14	1.1
C/C(=N/NC(=O)c1cn(-c2cccc(C)n2)cn1)c1ccc(C)cc1	1%	0.2	9	9.2	4	0	1.2
CCN(CC)S(=O)(=O)c1ccc(C(=O)Nc2ccc3c(c2)OCCO3)cc1	0%	-2.0	-10	?	2	-15	-1.1
Cc1ccc(C(=O)Nc2cc(Cl)ccc2-n2cncn2)s1	-1%	2.5	6	3.7	2	-6	3.2
Cc1ccc(S(=O)(=O)Nc2ncnc3ccccc23)cc1	/	-0.1	5	3.8	-4	-6	3.9
CCN(CC(=O)Nc1cccc(Br)c1)Cc1nc2ccccc2c(=O)[nH]1	16%	-1.8	/	/	15	/	/
CCOc1ccc(-c2c(C#N)c(N)nc3c2c(=O)n(C)c(=O)n3C)cc1OC	-28%	0.9	1	-2.7	-14	-7	-0.4
CCc1ccccc1NC(=O)CN1CCN(C(=O)CNC(=O)Cc2cccc3ccccc23)CC1	-10%	34*	-4	/	-2	/	-9.0
O=c1c2ccccc2c(-c2ccc(F)cc2)nn1-c1ccc(C(F)(F)F)cc1	20%	-2.3	-2	-0.7	-12	1	-3.1
COc1cc([N+](=O)[O-])ccc1NC(=O)Cc1ccccc1	17%	0.1	/	-1.4	1	13	-3.2
COc1ccccc1C(=O)Nc1ccc2ccccc2c1	/	1.4	-2	4.9	-10	2	-1.3
Cc1cccc(-n2ncc3c(NCc4ccccn4)ncnc32)c1	16%	-0.8	/	3.3	0	-4	4.5
CSc1sc(C(=O)NCC2CC2)cc1S(=O)(=O)C(C)C	-6%	0.8	-16	-0.5	-7	-4	1.2
CCCN(CC1CCCO1)C(=O)c1cc(COc2cccc(OC)c2)on1 (centres undefined)	0%	10	-1	6.2	10	30	-3.2
O=C(COc1ccc(F)cc1Br)N1CCN(S(=O)(=O)/C=C/c2ccccc2)CC1	1%	1.8	0	-0.4	-7	11	87*
C=CCNC(=O)NC(=O)COC(=O)c1cccnc1SC	-1%	-4.2	-1	0.0	-3	8	-6.1
CN(C)C(=O)Nc1cnc2ccccc2c1	26%	0.3	-5	-1.2	-3	6	-3.4
COc1cc(C(C)=O)ccc1O	/	-1.6	/	-0.6	2	/	-2.8
CN(C(=O)CSc1nc(-c2cccs2)nc2ccccc12)C1CCS(=O)(=O)C1 (centres undefined)	-58%	-2.2	/	/	-7	/	-2.2
CC1(C)Cc2c(sc(NC(=O)c3ccco3)c2C#N)C(C)(C)N1	/	/	-13	-0.4	/	?	8.0
Cc1ccc(-c2nc(C)sc2CC(=O)OCC(=O)Nc2c(F)cccc2F)cc1	/	5.6	-8	7.7	-6	6	1.1
COC(=O)c1ccccc1NC(=O)NC1CCCCC1	1%	-1.5	4	0.3	-2	3	0.0
O=C1N(O)C2(C=CCCC2)/C(=N\O)C12CCCCC2 (centres undefined)	-5%	0.5	-2	-2.7	1	7	3.3
O=C(Nc1cccc([N+](=O)[O-])c1)c1ccc2c(c1)C(=O)N(c1ccccn1)C2=O	5%	-2.8	3	2.9	11	-3	3.3
Oc1ccccc1-c1cc(-c2cccc(F)c2)n[nH]1	3%	-3.8	65	-0.6	4	-33	-1.6
O=C(Nc1ccc(CN2CCOCC2)cc1)c1ccco1	/	3.9	77*	-0.1	-15	5	1.5
O=C(COC(=O)C12CC3CC(CC(Cl)(C3)C1)C2)Nc1ccc2[nH]c(=O)[nH]c2c1	-7%	0.7	-5	/	-4	/	1.1
O=C(COC(=O)C1CC2CCCC(C1)C2=O)Nc1ccc(F)c(Cl)c1 (centres undefined)	/	-2.8	/	/	12	/	-1.5
COc1cccc(/C=N/NC(=O)c2cccc([N+](=O)[O-])c2)c1OS(=O)(=O)c1ccccc1	0%	0.7	/	-2.2	11	-3	-2.9
Nc1nnc(-c2ccc(F)cc2)s1	?	-1.2	-7	-1.8	-2	36	-3.3
COc1ccc(Cl)cc1C(=O)NC(=S)Nc1cc(-c2nc3ccccc3[nH]2)ccc1C	-6%	0.3	/	-6.0	-1	-20	3.8
Cc1cccc(NC(=O)CSc2nc3c([nH]c4ccccc43)c(=O)n2C)c1	0%	0.3	/	0.0	-21	-2	-3.2
COc1ccc(CN(C)C(=O)c2ccc(Cl)c(S(=O)(=O)NCc3cccnc3)c2)cc1F	-9%	-1.5	-1	/	-5	/	i

A different layout for part of the listing above.
smiles | Vif TR-FRET | HNF4A DNA FP | ALR H2O2 inh | RanGTP-Imp inh | Beta2AR agonist | Calb FLC | LANA-H2B inh
Nc1nnc(-c2ccc(F)cc2)s1 | ? | -1.2 | -7 | -1.8 | -2 | 36 | -3.3
COc1ccc(Cl)cc1C(=O)NC(=S)Nc1cc(-c2nc3ccccc3[nH]2)ccc1C | -6% | 0.3 | / | -6.0 | -1 | -20 | 3.8
Cc1cccc(NC(=O)CSc2nc3c([nH]c4ccccc43)c(=O)n2C)c1 | 0% | 0.3 | / | 0.0 | -21 | -2 | -3.2

Carrying on.
SMILES	Vif TR-FRET	HNF4A DNA FP	ALR H2O2 inh	RanGTP-Imp inh	Beta2AR agonist	Calb FLC	LANA-H2B inh
Cc1ccc2ncc(NC(=O)c3ccc(F)cc3)c(=O)n2c1	0%	1.2	-10	?	1	0	-0.4
Cn1cc(C(=O)NCC2COc3ccccc3O2)c(=O)c2cc(S(=O)(=O)N3CCCCC3)ccc21 (centres undefined)	18%	8.1	-7	5.0	5	6	-7.8
O=C(C1CCCN(c2ncnc3c2nc2n3CCCCC2)C1)N1CCN(c2ccccc2)CC1 (centres undefined)	/	-2.9	28	1.8	4	-4	-1.2
CN(C)CCCN(C(=O)/C=C/c1cccs1)c1nc2ccc(F)cc2s1	12%	5.3	-5	-0.9	27	2	-3.8
CCc1nc2c(oc3ccccc32)c(=O)[nH]1	-3%	1.6	-23	4.1	-6	10	-2.7
Cc1cccc(C(C(C(=O)c2ccccc2)N2CCOCC2)N2CCOCC2)c1 (centres undefined)	-5%	-2.5	/	/	-2	/	/
Cn1ccnc1SCCNC(=O)CCc1nnc(CCc2ccccc2)o1	-4%	-3.2	-3	0.2	-7	-17	1.7
O=C(Nc1ccc(N2CCCCC2)cc1)C1CCCN1S(=O)(=O)c1ccc(F)cc1 (centres undefined)	3%	-1.1	80*	/	-5	/	-2.9
Cn1nc(-c2ccccc2)c(C#N)c1Sc1cccc(Cl)c1	1%	2.6	3	0.5	-7	-15	0.7
Cc1csc(Sc2ccc(C(=O)OCC(=O)Nc3ccc(OC(F)(F)F)cc3)cc2[N+](=O)[O-])n1	1%	-0.5	1	0.3	-4	-2	-4.7
Nc1ccc(C(=O)CC(=O)Nc2ccc(Cl)cc2)cc1	-4%	1.6	4	0.1	-5	-6	0.8
CN(C)CCCNc1cc(-c2ccccc2)nc2cc(-c3cccc(F)c3)nn12	/	1.8	35	6.2	24	-6	5.2
CC(C)Cc1nnc(NC(=O)CCC(=O)NC2CCCCCCC2)s1	-2%	2.8	1	2.0	-10	1	-7.4
COCCCNC(=O)C1CCN(C(=O)Nc2ccc(Cl)cc2)CC1	7%	-0.2	-16	-1.1	1	17	-1.5
CCON1C(=O)C(C)(C)N(OCC)C(=O)C1(C)C	5%	4.3	1	0.3	-4	24	-0.4
Cc1cccc(C(=O)NC2CCCc3ccccc32)c1 (centres undefined)	15%	/	0	-2.3	/	27	-1.4
CCOC(=O)c1cc2c(=O)n3ccccc3nc2n(C(C)C)c1=NC(=O)c1ccco1	-3%	-5.8	/	0.3	1	1	1.5
COc1ccc(N/C=C2\C(=O)c3c(sc(C)c3C)N(C)S2(=O)=O)cc1	/	1.2	4	-0.2	-1	-8	1.3
COC(=O)NNC(=S)Nc1cc(OC)ccc1OC	6%	0.8	-5	0.7	11	12	2.6
CCC(C)NC(=O)C(Cc1ccccc1)NS(=O)(=O)c1ccc2c(c1)oc(=O)n2C (centres undefined)	-13%	-1.4	-2	6.3	-9	-1	1.5
COc1ccc(NC(=O)c2ccccc2Sc2ccc(NC(C)=O)nc2)cc1	-6%	4.2	1	-2.5	-1	5	-1.5
CC(=O)N(Cc1ccccn1)Cc1ccco1	14%	-1.1	-8	-1.4	-5	8	7.9
CCOc1ccc(N2C(=O)CC(Sc3nc(-c4cccs4)cc(C(F)(F)F)c3C#N)C2=O)cc1 (centres undefined)	10%	1.2	-4	2.1	16	6	0.5
CCOC(=O)/C=C/C(=O)OCC(=O)Nc1ccc(OC)c(Cl)c1	1%	3.5	33	-0.2	-3	-7	-2.3
COc1ccc(OC)c(NC(=O)Nc2nnc(N3CCCCC3C)s2)c1 (centres undefined)	/	-3.8	-7	2.0	1	32	0.8
CC(C)CC(=O)N1CCN(Cc2ccc(Cl)cc2)CC1	-2%	-1.3	-14	2.1	3	5	1.4
O=C1CN2C(=Nc3ccc(Br)cc3C2c2ccccc2)CCN1 (centres undefined)	4%	1.3	0	1.2	-2	-7	-3.0
C[C@]12CCC3C(CC[C@H]4CCCC[C@]34C)C1CC[C@@]2(O)CNCCO (some centres undefined)	-7%	3.3	-4	1.6	28	1	6.6
CCc1nnc2sc(-c3ccc(NC(=O)c4ccco4)cc3)nn12	-3%	6.3	-2	-2.8	-18	44	5.6
COc1ccc2c(c1OC)C(=O)OC2C/C(=N\NC(N)=O)c1ccccc1 (centres undefined)	0%	2.6	-6	0.0	-2	21	2.4
COc1cccc(/C=C/C(=O)Nc2cccc(C(C)=O)c2)c1OC	-8%	1.9	-10	0.4	28	24	-3.5
CCOC(=O)c1c(C)[nH]c(C)c1S(=O)(=O)NCC1CCN(Cc2ccccc2OC)CC1	/	-1.0	-4	-0.6	9	-7	3.2
O=C(NC(=S)Nc1ccccc1N1CCCCC1)c1ccco1	/	1.6	18	-4.4	-8	15	3.5
O=C(O)/C(=C\c1cccc(C(F)(F)F)c1)c1ccc(S(=O)(=O)N2CCCC2)s1	-1%	1.7	/	/	-3	/	3.2
Cc1c(C(=O)N2CCN(Cc3ccc4c(c3)OCO4)CC2)sc2ncnc(N3CCN(c4ccccc4F)CC3)c12	/	-2.7	-3	3.1	18	-25	-9.1
Cc1nc2c([nH]c3ccc(Br)cc32)s1	24%	-1.2	13	?	2	0	-3.7
CCOC(=O)c1nn(-c2ccccc2C)c2nc(CC(C)C)c(C#N)c(=O)n12	2%	6.2	-5	3.4	-2	-1	-6.1
COc1ccc(C(=O)Cc2nnc(C)s2)cc1	/	-0.3	6	-2.2	-1	-4	1.1
Cc1ccnc(NC(=O)C2CC(=O)N(Cc3ccccc3)C2)c1 (centres undefined)	/	0.0	2	-2.0	-1	0	0.4
CCOC(=O)c1ccc(-c2c(-c3cc(OC)c(OC)c(OC)c3)noc2C)cc1F	/	-0.2	-2	-0.2	8	4	-1.4

Screening results: PubChem BioAssay, several laboratories
